HIV Env fusion: inhibitors of HIV-1 Env-driven cell-cell fusion, primary screen, HeLa-JRFL effector, CEM21 target cells, luciferase | 1.1% of 360,000 active | inhibition, % at 12.3 µM;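 active = mean replicate inhibition score of at least 50 and every replicate individually at or above 50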;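 also: 0% = plate neutral controls and 100% = maraviroc near 300 nM; one replicate is shown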
UUG fidelity: modulators of yeast start codon fidelity, primary screen, whole organism, S. cerevisiae, single point, plate reader; S. cerevisiae UUG-firefly luciferase reporter, luminescence/redox ratio; AID 602363, 2012; 0.13% of 350,000 active; activity score, % at 18.7 µM;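 active = replicate mean at a twofold rise or more, about +100% in these data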;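 also: firefly luciferase made from a UUG start codon reports start codon fidelity; reporter light over untreated wells divided by growth signal over untreated wells; some hits fall short of that in this replicate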
Active calls of the source: *; & = joins results of further samples; ! = repeats disagree; [ ] = dose if it differs, or a comment. Only part of the results is shown; count on the stated rates, not on these rows.

SMILES	HIV Env fusion	UUG fidelity
C[C@@H]1CN([C@@H](C)CO)S(=O)(=O)c2ccc(-c3cccnc3)cc2O[C@H]1CN(C)C(=O)C1CCCCC1	9[16.7 µM]	-10
C[C@@H]1CN([C@H](C)CO)C(=O)c2cc(NC(=O)NC3CCCCC3)ccc2O[C@@H](C)CCCCO[C@H]1CN(C)C(=O)Nc1ccc2c(c1)OCO2	21[16.7 µM]	1
CO[C@H]1CN(C)C(=O)c2cc(NC(=O)Cc3ccccc3)ccc2OC[C@H](C)N(CC2CC2)C[C@H]1C	3[16.7 µM]	8
C[C@@H]1CN([C@@H](C)CO)C(=O)c2cc(-c3ccncc3)cnc2O[C@H]1CN(C)C(=O)CN1CCOCC1	17[16.7 µM]	2
C[C@@H]1CN([C@H](C)CO)C(=O)c2cc(NS(=O)(=O)c3ccc(Cl)cc3)ccc2O[C@@H](C)CCCCO[C@@H]1CN(C)Cc1ccc2c(c1)OCO2	68*![16.7 µM]	8&1
C[C@@H]1CN([C@H](C)CO)C(=O)c2cc(NC(=O)Nc3ccc4c(c3)OCO4)ccc2O[C@H]1CN(C)Cc1ccc(C(F)(F)F)cc1	16[16.7 µM]	9
C[C@@H]1CN([C@H](C)CO)S(=O)(=O)c2ccc(-c3cccc(F)c3)cc2O[C@H]1CN(C)CC1CC1	20[16.7 µM]	-11
C[C@H]1CCCCO[C@H](CN(C)C(=O)c2ccccc2)[C@@H](C)CN([C@@H](C)CO)C(=O)c2cc(NS(=O)(=O)c3cccs3)ccc2O1	-11[16.7 µM]	-1
O=C(C[C@H]1CC[C@@H](NC(=O)C2CCOCC2)[C@H](CO)O1)Nc1nccs1	-2[16.7 µM]	-4
C[C@@H]1CN([C@H](C)CO)C(=O)c2cc(-c3cccc(C(=O)N(C)C)c3)cnc2O[C@@H]1CN(C)C	8[16.7 µM]	-10
CC(C)C#Cc1ccc2c(c1)O[C@@H](CN(C)C(=O)CN(C)C)[C@H](C)CN([C@H](C)CO)S2(=O)=O	29[16.7 µM]	12
CC(C)C#Cc1ccc2c(c1)O[C@@H](CN(C)C(=O)c1cccc(F)c1)[C@H](C)CN([C@H](C)CO)S2(=O)=O	22[16.7 µM]	0
CNC[C@@H]1Oc2c(N)cccc2C(=O)N([C@H](C)CO)C[C@@H]1C	-3[16.7 µM]	2
C[C@H]1CN([C@@H](C)CO)C(=O)c2cc(-c3cccnc3)cnc2O[C@H]1CN(C)C(=O)Nc1ccc(C(F)(F)F)cc1	-11[16.7 µM]	5
C[C@@H]1CN([C@@H](C)CO)C(=O)c2cc(NS(C)(=O)=O)ccc2O[C@@H](C)CCCCO[C@@H]1CN(C)C(=O)CCC(F)(F)F	12[16.7 µM]	12
C[C@@H]1CN([C@H](C)CO)S(=O)(=O)c2ccc(C3=CCCC3)cc2O[C@@H]1CN(C)C(=O)Nc1ccc2c(c1)OCO2	4[16.7 µM]	2
C[C@@H]1CCCCO[C@@H](CN(C)C(=O)Nc2ccc3c(c2)OCO3)[C@@H](C)CN([C@H](C)CO)C(=O)c2cc(NC(=O)CCCCCC(=O)Nc3ccccc3N)ccc2O1	10[16.7 µM]	-13
CC(=O)N(C)C[C@H]1Oc2cc(-c3cccc(C#N)c3)ccc2S(=O)(=O)N([C@H](C)CO)C[C@H]1C	-15[16.7 µM]	0
COc1ccc(S(=O)(=O)Nc2ccc3c(c2)CC(=O)N([C@@H](C)CO)C[C@@H](C)[C@@H](CN(C)C(=O)NC2CCCCC2)O3)cc1	-5[16.7 µM]	10
C[C@@H]1CCCCO[C@@H](CN(C)C(=O)CCCN(C)C)[C@@H](C)CN([C@H](C)CO)C(=O)c2cc(NC(=O)C3CCCCC3)ccc2O1	0[16.7 µM]	-5

Profiles, quoted from the list:
C[C@@H]1CN([C@H](C)CO)S(=O)(=O)c2ccc(-c3cccc(F)c3)cc2O[C@H]1CN(C)CC1CC1 in the list: HIV Env fusion = 20[16.7 µM]; UUG fidelity = -11
COc1ccc(S(=O)(=O)Nc2ccc3c(c2)CC(=O)N([C@@H](C)CO)C[C@@H](C)[C@@H](CN(C)C(=O)NC2CCCCC2)O3)cc1 in the list: HIV Env fusion = -5[16.7 µM]; UUG fidelity = 10

Additional entries
SMILES	HIV Env fusion	UUG fidelity
C[C@H]1CN([C@@H](C)CO)S(=O)(=O)c2ccc(C#CC3CCCCC3)cc2O[C@H]1CN(C)Cc1cccnc1	5[16.7 µM]	5
C[C@@H]1CCCCO[C@H](CN(C)C(=O)NC2CCCCC2)[C@H](C)CN([C@H](C)CO)C(=O)c2cc(N(C)C)ccc2O1	-31[16.7 µM]	20
C[C@H](CO)N1C[C@H](C)[C@H](CN(C)CC2CCCCC2)OCCCC[C@H](C)Oc2ccc(NC(=O)c3ccccc3)cc2C1=O	-16[16.7 µM]	8
Cc1ccc(S(=O)(=O)Nc2ccc3c(c2)C(=O)N([C@@H](C)CO)C[C@@H](C)[C@H](CN(C)Cc2ccc(C(F)(F)F)cc2)OCCCC[C@@H](C)O3)cc1	108*[16.7 µM]	3
C[C@H](CO)N1C[C@H](C)[C@@H](CN(C)S(=O)(=O)c2cccs2)Oc2ccc(NS(=O)(=O)c3ccc(Cl)cc3)cc2C1=O	15[16.7 µM]	10
C[C@H]1CCCCO[C@@H](CN(C)Cc2ccc(C(F)(F)F)cc2)[C@@H](C)CN([C@@H](C)CO)C(=O)c2cc(NC(=O)Nc3ccc(F)cc3)ccc2O1	87*[16.7 µM]	14
C[C@H](CO)N1C[C@H](C)[C@H](CN(C)CC2CCCCC2)OCCCC[C@H](C)Oc2ccc(NS(C)(=O)=O)cc2C1=O	10[16.7 µM]	-1
C[C@H](CO)N1C[C@H](C)[C@@H](CN(C)C(=O)Nc2ccccc2)Oc2ccc(NC(=O)Cc3cn(C)c4ccccc34)cc2C1=O	7[16.7 µM]	4
Cc1ccc(S(=O)(=O)N[C@H]2CC[C@H](CCn3cc(-c4cccc(F)c4)nn3)O[C@@H]2CO)cc1	22[16.7 µM]	0
N#C[C@H]1[C@@H](c2ccc(-c3ccccc3F)cc2)[C@@H](CO)N1C(=O)c1ccccn1	-12[16.7 µM]	4
CCCNC(=O)C[C@@H]1CC[C@@H]2[C@H](COc3ccc(NC(=O)Cc4ccccc4)cc3C(=O)N2C)O1	-1[16.7 µM]	5
COc1cccc(NC(=O)N2C[C@@H](O)COC[C@@H]3O[C@H](CC(=O)N(C)C)CC[C@H]32)c1	-4[16.7 µM]	-10
C[C@H](CO)N1C[C@H](C)[C@H](CN(C)Cc2ccc(Cl)c(Cl)c2)Oc2ccc(NC(=O)Nc3ccccc3)cc2CC1=O	28[16.7 µM]	8
CN(C)C(=O)C[C@H]1C[C@H]2c3cc(NC(=O)Nc4ccccc4)ccc3O[C@H]2[C@@H](CO)O1	7[16.7 µM]	4
CN1CCN(C(=O)C[C@@H]2C[C@@H]3c4cc(NC(=O)Nc5ccccc5F)ccc4O[C@@H]3[C@H](CO)O2)CC1	-6[16.7 µM]	-12
C[C@@H]1CN([C@H](C)CO)C(=O)c2cc(NC(=O)Cn3cnnn3)ccc2O[C@H]1CN(C)S(=O)(=O)c1ccc(F)cc1	-9[16.7 µM]	-6
CC(C)C#Cc1ccc2c(c1)O[C@H](CN(C)C(=O)C1CCCCC1)[C@@H](C)CN([C@H](C)CO)S2(=O)=O	41[16.7 µM]	3
COc1ccc(S(=O)(=O)N(C)C[C@@H]2Oc3ccc(NS(=O)(=O)c4ccc(Cl)cc4)cc3CC(=O)N([C@@H](C)CO)C[C@@H]2C)cc1	11[16.7 µM]	3
Cc1noc(C)c1S(=O)(=O)Nc1ccc2c(c1)C(=O)N([C@@H](C)CO)C[C@@H](C)[C@H](CN(C)S(=O)(=O)c1cn(C)cn1)O2	-17[16.7 µM]	-8
C[C@H]1CCCCO[C@H](CN(C)C(=O)Nc2cccc3ccccc23)[C@@H](C)CN([C@@H](C)CO)C(=O)c2cc(NS(=O)(=O)c3ccc(Cl)cc3)ccc2O1	31[16.7 µM]	-9
C[C@H]1CN([C@@H](C)CO)C(=O)Cc2cc(NC(=O)Nc3cccc4ccccc34)ccc2O[C@H]1CN(C)Cc1ccc(-c2ccccc2)cc1	-4[16.7 µM]	20
C[C@H]1CN([C@@H](C)CO)C(=O)c2cc(C#Cc3ccccc3)cnc2O[C@H]1CN(C)C(=O)CCN1CCCCC1	5[16.7 µM]	-3
O=C(C[C@H]1C=C[C@H](NC(=O)c2ccc(F)cc2)[C@@H](CO)O1)NCCc1ccncc1	-12[16.7 µM]	-16
C[C@@H]1CN([C@@H](C)CO)C(=O)c2cc(NS(=O)(=O)c3cn(C)cn3)ccc2O[C@@H](C)CCCCO[C@H]1CN(C)Cc1ccc(C(F)(F)F)cc1	-35[16.7 µM]	12
COCC#Cc1ccc2c(c1)O[C@H](CN(C)Cc1ccccc1F)[C@H](C)CN([C@H](C)CO)S2(=O)=O	20[16.7 µM]	-3
C[C@@H]1CN([C@H](C)CO)C(=O)Cc2cc(NC(=O)CCC(F)(F)F)ccc2O[C@H]1CN(C)C(=O)Nc1ccc2c(c1)OCO2	-17[16.7 µM]	-8
C[C@H](CO)N1C[C@H](C)[C@H](CN(C)S(C)(=O)=O)Oc2ccc(NC(=O)CCC(F)(F)F)cc2C1=O	-8[16.7 µM]	-3
CC(C)C#Cc1ccc2c(c1)O[C@@H](CN(C)C(=O)CN(C)C)[C@H](C)CN([C@@H](C)CO)S2(=O)=O	17[16.7 µM]	-1
C[C@@H]1CCCCO[C@@H](CN(C)Cc2ccccc2)[C@H](C)CN([C@H](C)CO)C(=O)c2cc(NS(=O)(=O)c3cn(C)cn3)ccc2O1	-21[16.7 µM]	-3
O=C(C[C@H]1C[C@H]2c3cc(NC(=O)C4CCC4)ccc3O[C@H]2[C@@H](CO)O1)NCc1ccccc1	-13[16.7 µM]	-5
CC(C)CC#Cc1cnc2c(c1)C(=O)N([C@H](C)CO)C[C@@H](C)[C@H](CN(C)Cc1ccccc1)O2	21[16.7 µM]	9
Cc1ccc(S(=O)(=O)N(C)C[C@H]2OCCCC[C@@H](C)Oc3ccc(NS(=O)(=O)c4cn(C)cn4)cc3C(=O)N([C@@H](C)CO)C[C@H]2C)cc1	-32[16.7 µM]	3
C[C@@H]1CN([C@@H](C)CO)C(=O)c2cc(NS(C)(=O)=O)ccc2O[C@@H]1CN(C)Cc1ccccc1	-3[16.7 µM]	-10
COc1cc2c(cc1OC)-c1onc(-c3ccc(OCCO)cc3)c1CCCN(CC(C)O)CC2 (stereo unspecified)	3[16.7 µM]	7
C[C@@H]1CCCCO[C@H](CN(C)C(=O)Nc2ccc(F)cc2)[C@@H](C)CN([C@@H](C)CO)C(=O)c2cc(NS(=O)(=O)c3cn(C)cn3)ccc2O1	-50[16.7 µM]	-6
Cc1cc(C(=O)Nc2cccc3c2O[C@@H](CN(C)Cc2ccc4c(c2)OCO4)[C@@H](C)CN([C@@H](C)CO)C3=O)n(C)n1	-3[16.7 µM]	17
COCC(=O)N(C)C[C@H]1Oc2cc(C#CC(C)(C)O)ccc2S(=O)(=O)N([C@@H](C)CO)C[C@@H]1C	15[16.7 µM]	5
C[C@H](CO)N1C[C@H](C)[C@H](CN(C)Cc2ccc(C(=O)O)cc2)OCCCC[C@H](C)Oc2ccc(NC(=O)c3ccncc3)cc2C1=O	-9[16.7 µM]	-10
C[C@H]1CN([C@@H](C)CO)C(=O)c2cc(NS(=O)(=O)c3ccc(F)cc3)ccc2O[C@H]1CN(C)C(=O)Nc1ccc2c(c1)OCO2	-6[16.7 µM]	5
C[C@@H]1CCCCO[C@H](CN(C)C(=O)c2ccccc2)[C@@H](C)CN([C@H](C)CO)C(=O)c2cc(NC(=O)Nc3ccc4c(c3)OCO4)ccc2O1	-14[16.7 µM]	3
N#C[C@H]1[C@@H](c2ccc(C#Cc3ccccc3F)cc2)[C@H](CO)N1C(=O)C1CC1	0[16.7 µM]	-6
C[C@@H]1CN([C@H](C)CO)C(=O)Cc2cc(NC(=O)C3CCCCC3)ccc2O[C@H]1CN(C)C(=O)Nc1ccc(F)cc1	-5[16.7 µM]	15
C[C@H]1CCCCO[C@H](CN(C)Cc2ccc3c(c2)OCO3)[C@@H](C)CN([C@@H](C)CO)C(=O)c2cc(NS(=O)(=O)c3cn(C)cn3)ccc2O1	-2[16.7 µM]	-4
COc1cccc(S(=O)(=O)N[C@@H]2CC[C@H](CCn3cc(-c4ccccn4)nn3)O[C@@H]2CO)c1	6[16.7 µM]	-32
C[C@H]1CN([C@@H](C)CO)C(=O)c2cc(C#Cc3ccncc3)cnc2O[C@@H]1CN(C)S(=O)(=O)c1ccccc1F	-7[16.7 µM]	-4
C[C@H](CO)N1C[C@H](C)[C@H](CN(C)C(=O)Nc2ccccc2F)Oc2ncc(-c3ccc(F)cc3)cc2C1=O	9[16.7 µM]	13

Records above marked active in HIV Env fusion:
SMILES	HIV Env fusion	UUG fidelity
C[C@@H]1CN([C@H](C)CO)C(=O)c2cc(NS(=O)(=O)c3ccc(Cl)cc3)ccc2O[C@@H](C)CCCCO[C@@H]1CN(C)Cc1ccc2c(c1)OCO2	68*![16.7 µM]	8&1
Cc1ccc(S(=O)(=O)Nc2ccc3c(c2)C(=O)N([C@@H](C)CO)C[C@@H](C)[C@H](CN(C)Cc2ccc(C(F)(F)F)cc2)OCCCC[C@@H](C)O3)cc1	108*[16.7 µM]	3
C[C@H]1CCCCO[C@@H](CN(C)Cc2ccc(C(F)(F)F)cc2)[C@@H](C)CN([C@@H](C)CO)C(=O)c2cc(NC(=O)Nc3ccc(F)cc3)ccc2O1	87*[16.7 µM]	14

Source: PubChem BioAssay
